2A Renilla: FMDV 2A StopGo reporter, Renilla signal; HEK cells with a luciferase reporter of 2A StopGo recoding; Potency, µM (top dose mostly 57.5 µM), without a hit: top-dose signal change, negative = less light; 120,000 tested, 0.32% active; AID 1745857; active means well fitted falling curve with a large enough effect; inconclusive means small, poorly fitted or top-dose-only effect; inactive means no such curve, though single readings can be large or run the other way; note: nearly all actives have a fitted effect of over 55% in size; overnight with compound
StopGo FLuc: FMDV 2A StopGo reporter, firefly signal; HEK cells with a luciferase reporter of 2A StopGo recoding; Potency, µM (doses to about 57.5 µM), for inactives: at the highest dose signal change, negative = less light; 120,000 tested, 0.23% active; AID 1745856; active = well fitted falling curve with a large enough effect; inconclusive = small, poorly fitted or top-dose-only effect; inactive = no such curve, though single readings can be large or run the other way; note: nearly all actives have a fitted effect of over 60% in size; overnight with compound
An asterisk follows results filed as active; ? = inconclusive; & = joins results of further samples; [ ] = dose if it differs, or a comment. % is set by controls: 0 for no effect and ±100 for the full control effect; potency is the fitted concentration of half-maximal effect. Some of the compounds tested; count on the stated rates, not on these rows.

mol	2A Renilla	StopGo FLuc
Cc1cc(C(=O)OCC(=O)c2cc(C)n(CCc3ccccc3)c2C)c2ccccc2n1	-1%	13%
COc1c(C)cc(Br)cc1C(=O)Nc1ccc2oc(-c3cccnc3)nc2c1	?	?
COc1ccc(C(=O)COc2ccc3c(c2)OCO3)cc1OC	14%	0%
CCOc1ccc(CCNC(=O)CCCc2cc(-c3ccc(OCC)cc3)on2)cc1	-7%	?
COc1ccc(OC)c(NC(=O)c2cc(-c3ccc(Cl)s3)nc3ccccc23)c1	-16%	-26%
CCSc1nnc(-c2nn(C)c3c2CN(S(=O)(=O)c2ccc(C(C)=O)cc2)CC3)n1CC	14%	10%
CCC(=O)Oc1ccc(C2Nc3ccccc3-c3nnc(SC)nc3O2)cc1 (stereo unspecified)	-18%	-6%
Cc1c(-c2ccccc2)oc2c(C(=O)NC3CCN(Cc4ccccc4)C3)cccc2c1=O (stereo unspecified)	10%	-4%
Cc1ccc2oc(-c3cccc(F)c3)cc(=O)c2c1	111%[activator]	173%[activator]
CCC(Oc1ccc(F)cc1)C(=O)N1CCC(c2nc3ccccc3o2)CC1 (stereo unspecified)	?	?
COc1ccc(CNC(=O)c2cc(=O)c3ccccc3o2)cc1	7%	88%[activator]
COc1ccc(C(=O)NC(NC(C)C)C(Cl)(Cl)Cl)cc1 (stereo unspecified)	5%	27%
CC(=O)Nc1ccc(NS(=O)(=O)c2ccc3c(c2)CCCN3C(C)=O)cc1	118%[activator]	-13%
CC(C)Cc1cnc2c(c1SCC(=O)NC(C)C)c(=O)n(C)c(=O)n2C	0%	4%
COc1ccc(CCNC(=O)NCc2noc3ccc(C)cc23)c(OC)c1	49%&-7%[activator]	66%&-6%[activator]
Cc1ccc(NC(=O)C(C)C)c(Br)c1	-3%	19%
O=C(Cn1c(-c2cscn2)nc2ccccc21)Nc1ccccc1N1CCCC1=O	6%	0%
COc1cc(NC(=O)c2ccc(NS(C)(=O)=O)cc2)cc(OC)c1OC	17%	15%
Cc1ccc(-c2[nH]c3c(c2-c2c(-n4cccc4)n(C)c(=O)[nH]c2=O)c(=O)[nH]c(=O)n3C)cc1	-4%	-6%
CN(C)CCOC(=O)C12CCC3CC(CC(C3)C1)C2	9%	16%
O=C(c1ccccc1)c1ccc2nc(Nc3ccccc3Cl)c3nncn3c2c1	?	?
CCc1ccc(CNC(=O)CCN2C(=O)COc3ccccc32)cc1	-3%	-10%
CSc1ccc(CN2CCCCCC2c2sccc2C)cc1 (stereo unspecified)	-6%	82%[activator]
CCN(CC)C(=O)c1ccc(NS(=O)(=O)c2cccs2)cc1	14%	15%
COc1ccc(CCC(=O)NCc2ccc3c(c2)CCN3C(=O)c2ccccc2)cc1	-13%	-24%
CC1CCN(c2ccc(NC(=O)c3nn(-c4ccccc4)c(=O)c4ccccc34)cc2)CC1	-9%	1%
CC1CCC(NC(=O)C(Cc2c[nH]c3ccccc23)NC(=O)c2ccccc2Cl)CC1 (stereo unspecified)	58%[activator]	106%[activator]
Cc1cc2oc(=O)cc(CN(C)C(C)C3CC3)c2cc1C(C)C (stereo unspecified)	11%	14%
Cc1ccc(NC(=O)Cn2c(=O)n(Cc3ccco3)c(=O)c3ccccc32)c(C)c1	-6%	-11%
N#Cc1c(NC(=O)c2ccnn2C(F)F)sc2c1CCCC2	3.2µM*	?
CC(C(=O)N(C)CC(=O)Nc1ccccc1C(F)(F)F)N1CCN(Cc2ccccc2F)CC1 (stereo unspecified)	-12%	-9%
CCCNC(=O)COCc1cc(-c2ccc(F)cc2)on1	-2%	18%
CCOc1cc(C2C(C(=O)OC)=C(C)NC3=C2C(=O)c2ccccc23)ccc1O (stereo unspecified)	-4%	51%[activator]
CCCn1c(=N)c(C(=O)NC2CCCCC2)cc2c(=O)n3cc(C)ccc3nc21	-5%	-5%
O=C(c1cc(-c2cccc(Cl)c2)on1)N1CCSCC1	9%	140%[activator]
Cc1ccc(C)c(NC(=O)N2CCCC2c2ccco2)c1 (stereo unspecified)	15%	20%
Cc1ccccc1NC(=O)CCS(=O)(=O)c1cc(Br)cc2c1N(C(=O)C1CC1)CC2	-7%	-9%
O=C(/C=C/c1cccs1)c1cccc(O)c1	-1%	42%[activator]
CCOc1ccccc1NC(=O)Cn1nnc(C(=O)NCc2ccc(F)cc2)c1N	4%	-7%
CCCC(=O)N(c1ccc(F)cc1)C1C=CS(=O)(=O)C1 (stereo unspecified)	4%	-8%
Cc1ccc2c(CN3CCC(C(N)=O)CC3)cc(=O)oc2c1C	18%	70%[activator]
Cc1[nH]c2ccccc2c1C1c2ccccc2C(=O)N1CC(=O)N1CCN(C)CC1 (stereo unspecified)	-14%	-15%
Cc1cccc(N2N=C(C(=O)Nc3ccc(S(=O)(=O)N4CCCCCC4)cc3)CCC2=O)c1	49%[activator]	1%
Cc1ccccc1-c1nn2c(=O)cc(CN3CCN(C(=O)c4ccc(C(C)(C)C)cc4)CC3)nc2s1	-5%	0%
CC(C)NC(=O)NC(C)c1cccc(Cl)c1 (stereo unspecified)	-2%[1.06 µM]	15%
CCC(C)NC(=O)c1ccc2nc(Cc3ccccc3)oc2c1 (stereo unspecified)	6%	94%[activator]
Cc1ccc(-c2cnc(-c3ccccc3C(=O)OCC(=O)N(CCC#N)CCC#N)o2)cc1	41%[activator]	71%[activator]
CCCCn1c(=O)[nH]c(=O)c2c1nc(COC(=O)C1CC1)n2CC	-16%	-4%
Cc1ccc2[nH]cc(C(c3ccccc3)c3cccs3)c2c1 (stereo unspecified)	0%	-20%
Cc1cccc(-n2c3nc(=O)[nH]c(=O)c-3cc3c(C)nn(-c4ccccc4)c32)c1C	-15%	0%
Cc1cc(C(=O)OCC(=O)Nc2ccccc2Br)c(C)n1C(C)C	-27%	9%
CC(C)CC(NC(=O)C1CCCCC1)C(=O)NCCc1ccccc1 (stereo unspecified)	101%[activator]	13%
CCOc1ccc(NC(=O)c2cc3c(-c4ccccc4F)nn(C)c3s2)cc1	-14%	-19%
Cc1nc(N2CCOCC2)ncc1-c1cc(=O)[nH]c(Nc2cccc(C(F)(F)F)c2)n1	?	?
O=c1cc(-c2ccc(Cl)cc2)oc2ccc(F)cc12	1%	0%
O=C(CCc1c(-c2ccc(F)cc2)[nH]c2ccc(F)cc12)N1CCC1	41%[activator]	16%
CC(C)(C)c1ccc(-c2nnc(-c3ccc(Br)o3)o2)cc1	8%	227%[activator]
O=C(Nc1ccon1)c1cccn(Cc2cccc(Cl)c2)c1=O	-8%	9%
Cc1cc(Cl)nc(Cl)c1CCCl	31%[activator]	35%[activator]
Cc1ccc(-c2nc(SCC(=O)N3CCCc4ccccc43)n3[nH]c(=O)cc3n2)cc1	32%	35%[activator]

Full records, looked up by structure. Values in the order: 2A Renilla | StopGo FLuc
Results for CC(C)(C)c1ccc(-c2nnc(-c3ccc(Br)o3)o2)cc1 → 8% | 227%[activator]
Results for Cc1nc(N2CCOCC2)ncc1-c1cc(=O)[nH]c(Nc2cccc(C(F)(F)F)c2)n1 → ? | ?
Results for Cc1cccc(-n2c3nc(=O)[nH]c(=O)c-3cc3c(C)nn(-c4ccccc4)c32)c1C → -15% | 0%
Results for CC(C)CC(NC(=O)C1CCCCC1)C(=O)NCCc1ccccc1 (stereo unspecified) → 101%[activator] | 13%
Results for CCOc1ccc(NC(=O)c2cc3c(-c4ccccc4F)nn(C)c3s2)cc1 → -14% | -19%

Remaining list, next part.
mol	2A Renilla	StopGo FLuc
COc1cc(Nc2nc(-c3ccc(OC)c(OC)c3)nc3ccccc23)cc(OC)c1	-3%	6%
CC1CCCN(CCCNC(=O)c2ccc3c(c2)N(Cc2cccc(Cl)c2)C(=O)c2ccccc2S3(=O)=O)C1 (stereo unspecified)	31%[activator]	-33%
CC(=O)OC1CCC2(C)C3CCC4(C)C(=O)CCC4C3CC[C@H]2C1 (stereo partly specified)	10%	5%
O=Cc1c[nH]c2ccc(Br)cc12	7%	12%
Cc1nnsc1C(=O)Oc1ccccc1Cl	-10%	-11%
CSc1ccc(/C=C2/SC(=Nc3ccccc3)N(c3ccccc3)C2=O)cc1	2%	50%[activator]
O=C1c2ccccc2C(=O)N1CCSc1ncc(C(F)(F)F)cc1Cl	-12%	1%
CCSc1nnc2n(CC)c(=O)c3c(n12)-c1ccccc1CC31CCCCC1	-4%	-8%
CCn1c(=O)n(-c2ccc3c(c2)OCO3)c2nc(-c3cc(OC)ccc3OC)nc(C(N)=O)c21	-10%	-29%
Cc1cc(=O)oc2cc(NC(=O)COc3ccccc3)ccc12	2%	64%[activator]
CCCCOc1ccc(C(=O)N2CCCCC2CCN2CCOCC2)cc1 (stereo unspecified)	-5%	-21%
Oc1c(Cl)cc(Cl)cc1C=Nc1ccc(F)c(Cl)c1	6%	4%
Cn1cccc1/C=C(\C#N)c1ccc(Br)cc1	26%	65%[activator]
COc1ccc(Oc2coc3cc(OCc4ccccc4F)ccc3c2=O)cc1	49%[activator]	0%
O=C(c1cc2ccccc2oc1=O)N(Cc1ccc(Cl)cc1)Cc1ccco1	111%[activator]	130%[activator]
COC(=O)c1ccc(C2Nc3c(C)cccc3-c3cc(C)nn32)cc1 (stereo unspecified)	-11%	-10%
CN(Cc1ccccc1)S(=O)(=O)c1ccc(-c2nc(C#N)c(NCc3ccc(F)cc3)o2)cc1	6%	3%
CCc1ccccc1NC(=O)COC(=O)c1cn(CC)c2nc(C)ccc2c1=O	19%	0%
CC(NC(=O)C(C#N)C(=O)/C=C/c1ccccc1)c1ccccc1 (stereo unspecified)	-11%	0%
COc1ccc2oc(=O)c(-c3ccc(OC)c(OC)c3)c(C)c2c1	25%	6%
Cc1cccc(Nc2ccncc2S(=O)(=O)NC(=O)NC(C)C)c1	5%	-15%[11.5 µM]
Cc1ccccc1NC(=O)Cn1cc(S(=O)(=O)c2ccccc2)c(=O)c2ccccc21	-19%	-24%
Ic1ccc(-c2csc(Nc3ccc4c(c3)OCO4)n2)cc1	25%	167%[activator]
O=C(NCCC12CC3CC(CC(C3)C1)C2)C12CC3CC(CC(C3)C1)C2	-5%	-4%
COC(=O)c1cc2occc2n1Cc1nc(-c2ccc(C)cc2)oc1C	?	?
COc1ccc2c(C)c(CCC(=O)O)c(=O)oc2c1	-5%[1.06 µM]	0%
O=C(CSC1=Nc2ccccc2N=C(c2ccc(F)cc2)C1)NCc1ccc(F)cc1	8%	26%
COc1ccc(CNC(=O)c2cc(-c3ccc(OC)cc3)on2)cc1	9%	21%
N=C(N)c1ccc(COC2CCCCC2)cc1	-4%	-8%
Cc1cc(C(=O)COC(=O)c2cc3ccccc3oc2=O)c(C)n1CC(F)(F)F	-2%	5%
CN(C)C(=O)C1(c2cccc(Br)c2)CC1	-13%	-9%
Cc1cccc(Cn2c(NCCO)nc3c2c(=O)n(C)c(=O)n3C)c1	11µM*	?
CC(C)(C)c1ccc(NC(=O)CNS(=O)(=O)c2ccccc2Br)cc1	32%[activator]	1%
Cn1c(SCC(=O)Nc2ccccc2C(=O)NC2CCCC2)nnc1-c1cccnc1	7%	12%
Cc1ccc(C(=O)NCc2coc(-c3cccs3)n2)cc1	37%[activator]	43%[activator]
CCN(C(=O)c1cc2sc3ccccc3c2s1)c1ccccc1	43%[activator]	16%
CCOc1ccc(-c2cn3c(n2)sc2cc(C(=O)NCCCc4ccccc4)ccc23)cc1	-8%	35%[activator]
Cc1ccc2c(COC(=O)/C=C/c3ccccc3)cc(=O)oc2c1	-4%	14%
CCNc1ccc(OC)cc1	4%	64%[activator]
CCCCn1c(=O)[nH]c(=O)c2c1nc(CSc1nnc(C(F)(F)F)n1C)n2C	-12%	-9%
CCOC(=O)c1cnc(N2CCN(c3ccc(C)cc3C)CC2)c2ccccc12	-4%	-10%
CCCC(C#N)NC(=O)Cc1c[nH]c2ccccc12 (stereo unspecified)	2%	-4%
O=c1[nH]cccc1NS(=O)(=O)c1ccc(Cl)cc1	0%	-10%
Cc1cc(C)c(NC(=O)CNC(=O)COC(=O)Cc2n[nH]c(=O)c3ccccc23)c(C)c1	-9%	-8%
CC1CCN(c2oc(-c3ccc(COc4ccccc4)o3)nc2C#N)CC1	47%[activator]	8%
COc1cc(OC)c(NC(=O)Cn2nc(-c3ccc(C)cc3)ccc2=O)cc1Cl	2%	11%
CCOc1ccccc1C1N=C(N)Nc2nc3ccccc3n21 (stereo unspecified)	-8%	-8%
Cc1cc2ncn(CCCCOc3ccccc3)c2cc1C	26%	-11%
Cc1nnc(SCc2ccc(Cl)cc2)c2cc3occc3n12	-4%	36%[activator]
COc1ccc(-c2nc(Nc3ccccc3)c3ccccc3n2)cc1	13%	0%
CCCn1nc(C(=O)Oc2cc(Cl)ccc2Cl)c2ccccc2c1=O	2%	31%[activator]
COC(=O)NC(NC(=O)c1ccccc1)C(Cl)(Cl)Cl (stereo unspecified)	6%	3%
CC(C)=CC(=O)NCc1ccncc1	-9%	-1%
NC(=S)NCCc1ccccc1	6%	14%
CC1Sc2ccc(C(=O)OCC(=O)NCc3ccccc3)cc2NC1=O (stereo unspecified)	4%	2%
O=C(NC1(C(F)(F)F)C(=O)Nc2c1c(=O)[nH]c(=O)n2-c1ccc(F)cc1)c1cccs1 (stereo unspecified)	11%	16%
